# Assay outcomes: PubChem BioAssay, Broad Institute
# AF4-AF9 inh – inhibitors of AF4 peptide binding to AF9, primary screen, biochemical, AlphaScreen, biotin-AF4 peptide, FLAG-AF9, single point; inhibition, % at 10 µM; 350,000 tested, 0.47% active; AID 651704, 2012; Protein AF-9 (Homo sapiens), P42568;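 active = every replicate reaching a set inhibition limit, whatever the replicate mean, cut at about 25% in these data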;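 also: 0% = plate neutral control median and 100% = total signal loss; the record names both 10 and 1 µM as test concentration; the first replicate is given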
# Target sequence (P42568 whole entry, looked up): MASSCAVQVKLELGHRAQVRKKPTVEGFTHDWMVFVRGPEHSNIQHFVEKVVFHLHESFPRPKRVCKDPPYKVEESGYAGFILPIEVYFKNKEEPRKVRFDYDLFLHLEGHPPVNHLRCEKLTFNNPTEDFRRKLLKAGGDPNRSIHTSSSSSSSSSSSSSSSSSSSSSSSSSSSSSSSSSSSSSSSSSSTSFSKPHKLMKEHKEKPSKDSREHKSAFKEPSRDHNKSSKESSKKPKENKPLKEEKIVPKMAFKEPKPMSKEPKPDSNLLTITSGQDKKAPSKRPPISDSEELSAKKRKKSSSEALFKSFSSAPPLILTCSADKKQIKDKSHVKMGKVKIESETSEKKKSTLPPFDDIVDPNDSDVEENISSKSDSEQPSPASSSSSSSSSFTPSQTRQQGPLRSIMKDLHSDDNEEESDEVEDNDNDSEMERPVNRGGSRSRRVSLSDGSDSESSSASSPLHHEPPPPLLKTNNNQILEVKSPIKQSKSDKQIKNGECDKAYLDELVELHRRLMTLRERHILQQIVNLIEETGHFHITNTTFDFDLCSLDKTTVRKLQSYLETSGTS
# FGF22 binding – binders of human FGF22 protein, primary screen, FGF22 synaptogenesis inhibitor project, biophysical, thermal shift, single point; Fibroblast growth factor 22 (Homo sapiens), Q9HCT0; AID 651658, 2012; calls only at 9.99 µM; 340,000 tested, 1.5% active; recombinant FGF22 thermal shift, SYPRO orange fluorescence; percent of sucrose octasulfate shift, DMSO zero;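 active = melting point raised past a set limit in the mean and every replicate; three in four hits are not shown here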
# Target sequence (Q9HCT0 whole entry, looked up): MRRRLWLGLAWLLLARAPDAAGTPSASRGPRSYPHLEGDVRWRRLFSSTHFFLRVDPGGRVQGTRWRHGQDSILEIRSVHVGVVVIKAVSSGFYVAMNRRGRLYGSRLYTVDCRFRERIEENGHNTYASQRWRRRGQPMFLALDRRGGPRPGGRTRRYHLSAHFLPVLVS
# Numbers without * were called inactive; i = inactive.
canonical_smiles	AF4-AF9 inh	FGF22 binding
CCCNC(=O)N(C)C[C@@H]1Oc2cc(-c3ccc(C)cc3)ccc2S(=O)(=O)N([C@H](C)CO)C[C@@H]1C	-3.2	i
O=C(N[C@@H]1CC[C@H](CCn2cc(-c3ccccc3)nn2)O[C@@H]1CO)c1cnccn1	-0.8	i
O=C(CCN1CCCCC1)N[C@H]1C=C[C@@H](CC(=O)N2CCC(Cc3ccccc3)CC2)O[C@@H]1CO	-1.8	i
CC(C)NC(=O)N1CCCCN2[C@@H](CO)[C@@H](c3ccc(C#C[C@H](C)O)cc3)[C@@H]2C1	-9.2	i
C[C@@H]1CN([C@@H](C)CO)S(=O)(=O)c2ccc(C#CC(C)(C)O)cc2O[C@H]1CN(C)Cc1ccccc1	3.8	i
C[C@@H]1CN([C@H](C)CO)C(=O)c2cccc(NS(=O)(=O)c3ccc(F)cc3)c2O[C@@H]1CN(C)C	-3.0	i
C[C@H](CO)N1C[C@H](C)[C@H](CN(C)Cc2ccccc2C(=O)O)Oc2ncc(C#CC3CC3)cc2C1=O	3.0	i
CCCC(=O)Nc1ccc2c(c1)OC[C@H](C)N(Cc1ccc(-c3ccccn3)cc1)C[C@@H](C)[C@@H](OC)CN(C)C2=O	6.8	i
C[C@@H]1CN([C@H](C)CO)S(=O)(=O)c2ccc(C#Cc3ccccc3F)cc2O[C@H]1CN(C)C	12.1	i
Cc1ccc2c(c1)-n1c(nc3ccccc3c1=O)C(Cc1ccccc1)NC2=O (stereo not given)	9.0	i

# Going on with the list:
canonical_smiles	AF4-AF9 inh	FGF22 binding
COCC(=O)N1[C@H](CO)[C@H](c2ccccc2)C12CN(C(=O)Nc1ccccc1F)C2	-3.7	i
CCCNC(=O)N1CC2(CCN(C(=O)C3CC3)CC2)c2c([nH]c3cc(OC)ccc23)[C@H]1CO	-0.2	i
C[C@H]1CN([C@@H](C)CO)C(=O)Cc2cc(NC(=O)NC3CCCCC3)ccc2O[C@@H]1CN(C)S(C)(=O)=O	-0.7	i
COc1ccc(CN(C)C[C@@H]2OCCCC[C@H](C)Oc3ccc(NC(=O)C4CCCCC4)cc3C(=O)N([C@@H](C)CO)C[C@H]2C)cc1	-2.1	i
C[C@H]1CN([C@@H](C)CO)C(=O)c2cc(-c3cccc(C(=O)N(C)C)c3)cnc2O[C@H]1CN(C)S(=O)(=O)c1ccc(F)cc1	-6.7	i
C[C@@H]1CCCCO[C@H](CN(C)C(=O)Cc2ccccc2)[C@@H](C)CN([C@@H](C)CO)C(=O)c2cc(NS(=O)(=O)c3cn(C)cn3)ccc2O1	-1.8	i
COCC(=O)N1[C@H](C#N)[C@H](c2ccccc2)[C@H]1CO	-0.3	i
COCC(=O)N(C)C[C@@H]1Oc2cc(-c3ccccc3F)ccc2S(=O)(=O)N([C@@H](C)CO)C[C@H]1C	-8.9	i
C[C@@H]1CN([C@H](C)CO)C(=O)c2cc(C#C[C@@H](C)O)cnc2O[C@H]1CN(C)Cc1cccc(C(=O)O)c1	-7.5	i
O=C(C(=O)N1CCC(CNC(=O)C2COc3ccccc3O2)CC1)c1cc2ccccc2o1 (stereo not given)	2.4	i

# Continuation:
canonical_smiles	AF4-AF9 inh	FGF22 binding
CO[C@@H]1CN(C)C(=O)c2ccc(NS(=O)(=O)c3ccccc3)cc2OC[C@H](C)N(C(=O)NC(C)C)C[C@H]1C	-0.1	i
O=C(C[C@H]1CC[C@H]2[C@@H](COC[C@H](O)CN2Cc2cc(F)ccc2F)O1)NCc1ccccc1	-2.4	i
CCCNC(=O)Nc1ccc2c(c1)OC[C@@H](C)N(Cc1ccc(-c3ccccn3)cc1)C[C@@H](C)[C@H](OC)CN(C)C2=O	3.2	i
COc1cccc(CN2CC3(CN(CC4CC4)C3)c3c([nH]c4cc(OC)ccc34)[C@@H]2CO)c1	3.9	i
COCC(=O)Nc1ccc2c(c1)[C@H]1C[C@@H](CC(=O)NCc3ccc4c(c3)OCO4)O[C@@H](CO)[C@H]1O2	1.2	i
CC(C)[C@H](C)NC(=O)N(C)C[C@@H]1OCc2ccccc2-c2c(n(C)c3ccccc23)C(=O)N([C@@H](C)CO)C[C@@H]1C	-3.1	i
O=S(=O)(N[C@@H]1CC[C@H](CCn2cc(-c3cccnc3)nn2)O[C@@H]1CO)c1ccc(F)cc1	0.2	i
Cc1noc(C)c1NC(=O)Nc1cccc2c1O[C@@H](CN(C)C(=O)Nc1ccc(C(F)(F)F)cc1)[C@H](C)CN([C@@H](C)CO)C2=O	-1.4	i
COCC(=O)N1C[C@H](C)[C@H](OC)CN(C)C(=O)c2ccc(NC(=O)c3ccc(F)cc3)cc2OC[C@@H]1C	0.0	i
N#C[C@H]1[C@H](c2ccccc2)[C@H](CO)N1C(=O)Nc1cccc(F)c1	-0.4	i

# Remaining list, next part.
canonical_smiles	AF4-AF9 inh	FGF22 binding
COc1ccc(NC(=O)Nc2ccc3c(c2)C(=O)N([C@@H](C)CO)C[C@H](C)[C@@H](CN(C)S(=O)(=O)c2ccccc2)O3)cc1	3.4	i
CC(C)C#Cc1ccc2c(c1)O[C@@H](CN(C)C(=O)Cc1ccccn1)[C@H](C)CN([C@H](C)CO)S2(=O)=O	1.7	i
C[C@H](C(=O)N(C)C[C@H]1OCc2ccccc2-c2c(n(C)c3ccccc23)C(=O)N([C@@H](C)CO)C[C@H]1C)c1ccccc1	-1.4	i
CCCNC(=O)N1CC2(CN(CC3CCOCC3)C2)c2c(n(C)c3cc(OC)ccc23)[C@@H]1CO	-1.4	i
Cc1noc(C)c1S(=O)(=O)N(C)C[C@H]1OCCCC[C@H](C)Oc2ccc(NC(=O)Cc3ccccc3)cc2C(=O)N([C@@H](C)CO)C[C@@H]1C	-2.4	i
O=C(C[C@H]1C[C@H]2c3cc(NC(=O)c4cccnc4)ccc3O[C@H]2[C@@H](CO)O1)NCCN1CCCCC1	-13.7	i
CC(C)CC#Cc1ccc2c(c1)O[C@H](CN(C)C(=O)c1cnccn1)[C@H](C)CN([C@@H](C)CO)S2(=O)=O	0.6	i
CO[C@@H]1CN(C)C(=O)c2cc(NS(C)(=O)=O)ccc2OC[C@H](C)N(S(C)(=O)=O)C[C@@H]1C	-2.1	i
Nc1cc2ccccc2cc1NS(=O)(=O)N1CCCCC1	0.7	i
C[C@H]1CN([C@@H](C)CO)C(=O)c2ccccc2-c2ccccc2CO[C@H]1CN(C)Cc1ccncc1	-3.4	i

# Next section
canonical_smiles	AF4-AF9 inh	FGF22 binding
C[C@@H]1CCCCO[C@H](CN(C)CC2CC2)[C@H](C)CN([C@H](C)CO)C(=O)c2cc(N(C)C)ccc2O1	20.6	i
C[C@H](CO)N1C[C@H](C)[C@@H](CN(C)C(=O)CC2CC2)Oc2cc(C#CC(C)(C)O)ccc2S1(=O)=O	-3.1	i
N#Cc1ccc(-c2ccc([C@@H]3[C@@H](CO)N4C(=O)CN(C(=O)C5CCCCC5)C[C@H]34)cc2)cc1	-0.3	i
C[C@@H]1CN([C@H](C)CO)C(=O)c2cc(NS(=O)(=O)c3cccs3)ccc2O[C@H]1CN(C)Cc1ccc2c(c1)OCO2	4.4	i
C[C@@H]1CN([C@H](C)CO)C(=O)c2cc(NC(=O)Cn3cnnn3)ccc2O[C@H]1CN(C)CC1CCCCC1	0.2	i
COc1ccc(NC(=O)N(C)C[C@H]2OCCCC[C@H](C)Oc3ccc(NC(=O)c4ccccc4)cc3C(=O)N([C@H](C)CO)C[C@H]2C)cc1	-0.4	i
COc1ccc(NC(=O)Nc2ccc3c(c2)C(=O)N([C@H](C)CO)C[C@@H](C)[C@@H](CN(C)Cc2ccc(C(=O)Nc4ccccc4N)cc2)O3)cc1	-2.4	i
COc1ccc(NC(=O)Nc2ccc3c(c2)CC(=O)N([C@@H](C)CO)C[C@@H](C)[C@@H](CN(C)C(=O)Nc2ccc(OC)cc2)O3)cc1	0.7	i
CO[C@@H]1CN(C)C(=O)c2ccc(NS(=O)(=O)CC(F)(F)F)cc2OC[C@@H](C)N(Cc2nccs2)C[C@H]1C	-0.7	i
Cc1noc(C)c1NC(=O)Nc1cccc2c1O[C@@H](CN(C)C(=O)Nc1ccccc1)[C@@H](C)CN([C@H](C)CO)C2=O	0.3	i

# New compounds follow
canonical_smiles	AF4-AF9 inh	FGF22 binding
NCC[C@H]1CC[C@H](NC(=O)Cc2ccncc2)[C@@H](CO)O1	2.2	i
O=C(NC1CCCCC1)N[C@H]1C=C[C@@H](CC(=O)N2CCOCC2)O[C@@H]1CO	-6.0	i
C[C@H](CO)N1C[C@H](C)[C@@H](CN(C)S(C)(=O)=O)Oc2ccc(NS(=O)(=O)c3cccs3)cc2CC1=O	4.9	i
COc1ccc(S(=O)(=O)N(C)C[C@H]2OCCCC[C@@H](C)Oc3ccc(NS(C)(=O)=O)cc3C(=O)N([C@@H](C)CO)C[C@H]2C)cc1	1.0	i
CC(C)C(=O)Nc1ccc2c(c1)C(=O)N(C)[C@H]1CC[C@H](CC(=O)NCc3ccccc3)O[C@@H]1CO2	2.1	i
C[C@@H]1CN([C@H](C)CO)S(=O)(=O)c2ccc(C#Cc3cccc(F)c3)cc2O[C@@H]1CN(C)C(=O)NC1CCCCC1	-0.4	i
C[C@@H]1CN([C@@H](C)CO)S(=O)(=O)c2ccc(-c3ccccc3)cc2O[C@@H]1CN(C)Cc1ccncc1	1.9	i
COc1ccc(NC(=O)N(C)C[C@H]2Oc3ccc(NC(=O)Cn4cnnn4)cc3C(=O)N([C@@H](C)CO)C[C@H]2C)cc1	-1.0	i
CCS(=O)(=O)Nc1ccc2c(c1)C(=O)N(C)C[C@@H](OC)[C@H](C)CN(C(=O)c1ccc3c(c1)OCO3)[C@H](C)CO2	1.9	i
C[C@H](NC(=O)C[C@H]1CC[C@H](NC(=O)C2CCC2)[C@@H](CO)O1)c1ccccc1	-0.4	i

# Already shown: 3 of the compounds above.
canonical_smiles	AF4-AF9 inh	FGF22 binding
COc1ccc(NC(=O)N(C)C[C@H]2Oc3ccc(NC(=O)Cn4cnnn4)cc3C(=O)N([C@@H](C)CO)C[C@H]2C)cc1	-1.0	i
CCS(=O)(=O)Nc1ccc2c(c1)C(=O)N(C)C[C@@H](OC)[C@H](C)CN(C(=O)c1ccc3c(c1)OCO3)[C@H](C)CO2	1.9	i
C[C@H](NC(=O)C[C@H]1CC[C@H](NC(=O)C2CCC2)[C@@H](CO)O1)c1ccccc1	-0.4	i

# (more compounds)
canonical_smiles	AF4-AF9 inh	FGF22 binding
O=C(C[C@H]1CC[C@@H]2[C@H](COC[C@@H](O)CN2Cc2cc(F)ccc2F)O1)NCc1ccccc1	-0.8	i
O=C1Nc2c(Cl)cc(Cl)cc2C12Nc1ccccc1S2 (stereo not given)	0.4	i
COc1cccc(C(=O)N2C[C@@H]3[C@H](c4ccccc42)[C@H](CO)N3C(=O)NC(C)C)c1	0.9	i
C[C@H]1CN([C@@H](C)CO)S(=O)(=O)c2ccc(C3=CCCCC3)cc2O[C@@H]1CN(C)C(=O)C1CCCCC1	10.4	i
C[C@H]1CN([C@@H](C)CO)C(=O)c2cccc(NC(=O)C3CCOCC3)c2O[C@H]1CN(C)S(=O)(=O)c1cccs1	-5.7	i
CNC[C@H]1Oc2ccc(NC(=O)CCC(F)(F)F)cc2C(=O)N([C@H](C)CO)C[C@@H]1C	-2.2	i
C[C@@H]1CN([C@@H](C)CO)S(=O)(=O)c2ccc(C3=CCCC3)cc2O[C@@H]1CN(C)C(=O)c1ccccn1	-3.4	i
CO[C@@H]1CN(C)C(=O)c2cc(NC(C)=O)ccc2OC[C@@H](C)N(C(=O)c2ccc(F)cc2)C[C@@H]1C	4.7	i
COc1ccc(-c2ccccc2[C@H]2[C@@H](CO)N(C(=O)C3CCC3)[C@H]2C#N)cc1	-0.4	i
CCC(=O)N(C)C[C@@H]1Oc2cc(C#CC3CC3)ccc2S(=O)(=O)N([C@H](C)CO)C[C@H]1C	-6.2	i

# Brought forward from above: 3 entries, followed by the next part.
canonical_smiles	AF4-AF9 inh	FGF22 binding
CO[C@@H]1CN(C)C(=O)c2cc(NC(C)=O)ccc2OC[C@@H](C)N(C(=O)c2ccc(F)cc2)C[C@@H]1C	4.7	i
COc1ccc(-c2ccccc2[C@H]2[C@@H](CO)N(C(=O)C3CCC3)[C@H]2C#N)cc1	-0.4	i
CCC(=O)N(C)C[C@@H]1Oc2cc(C#CC3CC3)ccc2S(=O)(=O)N([C@H](C)CO)C[C@H]1C	-6.2	i
O=C(c1cccnc1)N1C[C@H]2[C@@H](c3ccccc31)[C@H](CO)N2C(=O)Nc1ccccc1	1.1	i
C[C@@H]1CN([C@H](C)CO)S(=O)(=O)c2ccc(C#C[C@@H](C)O)cc2O[C@@H]1CN(C)C(=O)c1ccncc1	1.7	i
CC(C)C#Cc1ccc2c(c1)O[C@H](CN(C)Cc1cccnc1)[C@H](C)CN([C@@H](C)CO)S2(=O)=O	5.3	i
O=C(C1CC1)N1CC[C@@H]2[C@H]1c1cc(-c3ccc(F)cc3)ccc1N[C@@H]2CO	-0.9	i
O=C(C[C@H]1CC[C@@H]2[C@H](COC[C@@H](O)CN2Cc2ccc(Oc3ccccc3)cc2)O1)N1CCCCC1	3.2	i
COc1ccc(S(=O)(=O)Nc2ccc3c(c2)CC(=O)N([C@@H](C)CO)C[C@H](C)[C@@H](CN(C)Cc2ccc(C(=O)Nc4ccccc4N)cc2)O3)cc1	-1.0	i
C[C@H]1CN([C@@H](C)CO)C(=O)c2cc(NC(=O)Nc3ccccc3)ccc2O[C@@H]1CN(C)S(=O)(=O)c1cn(C)cn1	-0.4	i
CCS(=O)(=O)N1[C@H](CO)[C@H](c2ccc(C#CCC3CCCC3)cc2)[C@@H]1C#N	4.8	i
CO[C@@H]1CN(C)C(=O)c2cc(NC(=O)Cc3ccccc3)ccc2OC[C@H](C)NC[C@@H]1C	-1.3	i

# An excerpt (hit frequency here may not be typical).
